Vaccinia Venus = vaccinia inhibition (Venus reporter) | hit rate 0.46% among 330,000 | Vaccinia virus Venus reporter expression, fluorescence | Potency, µM (series often up to 36.5 µM), without a hit: top-dose activity change, negative = inhibition, most hits filed as inhibitors | AID 720580; active means well fitted inhibition curve with a large enough effect; inconclusive means small, poorly fitted or top-dose-only effect; inactive means no such curve, though single readings can be large or run the other way; tested in A549 cells; also: nearly all actives have a fitted effect of over 30% in size; inactives centre near -10
VACV mCherry inh = vaccinia inhibition (mCherry reporter). Vaccinia virus mCherry reporter infection, fluorescence; about a quarter of the inactives have no number. Potency, µM (top dose mostly 36.5 µM), inactives show top-dose activity change, negative = inhibition, most hits filed as inhibitors. hit rate 0.63% among 310,000; active = well fitted inhibition curve with a large enough effect; inconclusive = small, poorly fitted or top-dose-only effect; inactive = no such curve, though single readings can be large or run the other way; tested in A549 cells; also: nearly all actives have a fitted effect of over 35% in size; inactives centre near -10
The depositor's hits bear a star; i = inactive; ? = inconclusive; · = no result given; & = joins results of further samples; [ ] = remark or other dose. % is scaled to controls: 0 for no effect and ±100 for the full control effect; potency is read from the fitted curve at half-maximal effect.

SMILES	Vaccinia Venus	VACV mCherry inh
CC(C)(C)NC(=O)[C@H]1CC[C@H]2[C@@H]3CC[C@H]4NC(=O)C=C[C@]4(C)[C@H]3CC[C@]12C	-16%	i
COc1ccc(N(Cc2ccccc2)C(=O)CSc2nnc(Cn3nnc4ccccc43)o2)cc1	?	?
Cc1c(C(=O)N2CCCCC2)oc2ccc(Br)cc12	-9%	-3%
CC1(C)CC(=O)C2=C(C1)NC(=O)NC2c1ccc(Cl)cc1 (centres undefined)	0%	-11%
c1ccc(C2=NOC(c3nnc(-c4ccccc4)o3)C2)cc1 (centres undefined)	-3%	-6%
CCCCN(CCCC)CC(O)COc1ccccc1Br (centres undefined)	-26%	-12%
Cc1cc(C)n2nc(S(=O)(=O)N(CC(C)C)CC(C)C)nc2n1	-3%	-11%
Oc1ccc2ccccc2c1CN1CC=C(c2ccccc2)CC1	-2%	-3%
Cc1nn(C)c2c1c(-c1ccccc1)cc(=O)n2Cc1ccccc1F	4%	-1%
CC(=O)Nc1ccc(NC(=O)C2CCC(CNS(=O)(=O)c3cccc4nsnc34)CC2)cc1 (centres undefined)	-5%	-14%
O=C(CSc1nc2ccccc2o1)N1N=C(c2cccs2)CC1c1ccc(F)cc1 (centres undefined)	-25%	-9%
CCCCCCC(C)n1[nH]c(=O)cc1N (centres undefined)	-15%	?
C[C@H](NC(=O)c1nc[nH]c1C(=O)OCc1ccccc1)c1ccccc1	?	-14%
CC(C)NC(=O)C1(C)CCN1CCC(=O)c1ccccc1 (centres undefined)	-4%	4%
CCOC(=O)C1=C(N)OC2=C(C(=O)CC(C)(C)C2)C1c1cc(CSc2nnnn2C)cs1 (centres undefined)	-5%	i
CCOC(=O)N1CCN(c2cc(=O)n(C3CCCCC3)c(=O)[nH]2)CC1	-9%	15%[1.46 µM]
CC(=O)Nc1nc(C)c(S(N)(=O)=O)s1	-3%	-11%
CCC/C=C/c1ccc(CN2C(C)C(=O)N(Cc3cn(CCC4OCCCO4)nn3)CCS2(=O)=O)cc1 (centres undefined)	?	i
COC(=O)C1=C(C(=O)OC)[C@@H]2N(Cc3ccccc3)c3ccccc3[C@@]23C[C@@H](C(=O)OC)N(S(=O)(=O)c2ccc(C(F)(F)F)cc2)C3=N1	-14%	i
CCCC(=O)N(c1ccc(OCC)cc1)S(=O)(=O)c1ccc2c3c(cccc13)C(=O)N2C	-4%	-10%
O=C(N/N=C/c1cccs1)c1cc(-c2ccc(Cl)s2)[nH]n1	-17%	-26%
Cc1ccc(Cl)cc1NC(=O)C1CC(=O)N(C(C)C)C1 (centres undefined)	-4%	-13%
CC(=O)c1ccc(NC(=O)c2cn(-c3ccccc3)nc2-c2ccc(Br)cc2)cc1	-19%	?
COc1ccc2c(c1OC)CN(C)CCc1cc3c(cc1C(=O)C2)OCO3	-8%	-5%
CCCCn1c(SCc2nc3ccccc3s2)nc2cc(S(N)(=O)=O)ccc21	?	-23%

New compounds follow
SMILES	Vaccinia Venus	VACV mCherry inh
Brc1ccccc1C1=Nn2c(nnc2-c2ccccc2)SC1	-13%	-16%
O=C(O)c1ccc(Nc2nc3ccccc3c3nncn23)cc1	-7%	-15%
COc1ccc(Nc2nnc(-c3ccc(C)c(S(=O)(=O)N4CCOCC4)c3)c3ccccc23)cc1	-25%	-18%
Clc1ccc(OCc2nnnn2-c2ccccc2)cc1	-10%	-13%
C=COCCNC(=O)C(=O)NCC(C)C	-10%	-16%
COCCCn1c(=N)c(C(=O)NC2CCCC2)cc2c(=O)n3ccccc3nc21	-3%	-1%
NNC(=O)CN1CCCc2ccccc21	-14%	-21%
O=C(CN1C(=O)c2cccc3cccc1c23)Nc1ccc2c(c1)OCO2	-5%	i
CN(C)c1nc(Nc2ccc(Cl)c(Cl)c2)nc(N(C)C)n1	-3%	-10%
CC(=O)NCCn1c(C)cc2ccccc21	2%	-13%
O=c1c2cnn(-c3ccccc3)c2nnn1/N=C/c1cccnc1	-7%	·
Cc1nn(-c2ccc(Br)cc2)c(=O)c2ccccc12	9%	2%
Cc1cc(=O)oc(C)c1C(=O)NCC(C)NC(=O)c1c(C)cc(=O)oc1C (centres undefined)	-13%	·
Cc1ccccc1NC(=O)Cn1cnc2c(oc3nc4c(cc32)CCCC4)c1=O	-11%	-19%
Cc1ccc(CNC(=O)C2CC(c3cccc(F)c3)=NO2)cc1 (centres undefined)	-12%	i
O=C(NNC(=O)C1CCC1)c1ccc(F)cc1	-13%	i
CCCCN1C(=O)C(=O)N(CC(=O)N2CCN(c3ccccc3)CC2)C1=O	6%	i
COC(=O)C1=C(c2ccc(OCc3ccccc3)cc2)C[C@@H]2CC[C@H]1N2C(=O)NCc1cccc(C(F)(F)F)c1	?	-19%
CCN(Cc1ccccc1)S(=O)(=O)c1cc2c3c(c1)CCN3C(=O)CC2	-7%	-14%
Cc1ccc(S(=O)(=O)Nc2cccc(Cl)c2)cc1NC(=O)c1cccnc1	-15%	i
COc1ccc(Cc2nc3ccc(C(=O)NCCc4ccc(Cl)cc4)cc3o2)cc1	-3%	-5%
O=C(NC1CCCCC1)C(=O)c1c[nH]c2ccccc12	-18%	-7%
CC(C)(C)OC(=O)C[C@@H]1C/C=C\C[C@H](CC(=O)NCCO)C(=O)NC[C@@H](c2ccccc2)OC1=O	-7%	-12%
CCOc1cc(S(=O)(=O)N2CCCC2)ccc1Cl	-6%	-16%
CCC(=O)N1CCc2cc(Br)cc(S(=O)(=O)CC(=O)OC)c21	-21%	·

Next compounds:
SMILES	Vaccinia Venus	VACV mCherry inh
Cc1ccc(C(C(=O)NCc2ccco2)N(C(=O)CNC(=O)c2cccs2)c2c(C)cccc2C)cc1 (centres undefined)	-14%	i
COc1ccc(-n2c(N)c(C#N)c3ccc([N+](=O)[O-])cc3c2=O)cc1	0%	-9%
Nc1ccc(Nc2nc(-c3ccncc3)cs2)cc1	-12%	-21%
CCC(C)c1ccccc1NC(=O)COC(=O)C1=NN(c2ccccc2)C(=O)CC1 (centres undefined)	-21%	-5%
CCOC(=O)c1noc2c1CCC2	-12%	4%
CCOc1ccc(NC(=O)CN(C)C(=O)c2ccc3[nH]c4c(c3c2)CC(C)CC4)cc1OCC (centres undefined)	-18%	-8%
C/C(Sc1nnc(Cc2ccccc2)o1)=C(/O)c1ccccc1	-6%	-2%
Cc1cc(C)c(-c2csc(NC(=O)c3cc([N+](=O)[O-])ccc3N3CCOCC3)n2)c(C)c1	-9%	i
O=C(CN1C(=O)NC(Cc2c[nH]c3ccccc23)C1=O)Nc1ccccc1C(F)(F)F (centres undefined)	-18%	-4%
CCOC(=O)c1cnc2c(Cl)cccc2c1NCCN1CCOCC1	15%&1%	1%&-1%
COc1ccc(C2N(c3cc(Cl)ccc3OC)C(=O)C3CCCN32)cc1 (centres undefined)	-12%	-1%
Nc1ccc(CCc2ccccn2)cc1	-10%	?
CCOc1cc(N2CCOCC2)c(OCC)cc1NC(=O)[C@H](C)N1C(=O)C2CC=CCC2C1=O (some centres undefined)	6%	-2%
O=C1C2C(c3ccccc3)CC=CC2[C@H](c2ccoc2)N1Cc1ccccc1 (some centres undefined)	-26%	-12%
COCc1cc(=O)n2[nH]cc(-c3ccsc3)c2n1	-5%	-7%
Cc1ccc(NC(=O)CSc2ccccc2)cc1S(=O)(=O)N1CCCCC1	-14%	-3%
CC1(C)CC(=O)C2=C(C1)OC(N)=C([N+](=O)[O-])C2c1cccs1 (centres undefined)	7%	-1%
CCc1nc(NCCCCCO)c2nnn(Cc3ccccc3F)c2n1	-13%	·
COc1ccc(-c2nc3sc(CCNS(=O)(=O)c4c(C)cc(C)cc4C)c(C)n3n2)cc1	?	?
O=C1CSC2(C(=O)N(Cc3cccc(C(F)(F)F)c3)c3ccccc32)N1c1ccc(F)c(F)c1 (centres undefined)	-11%	-18%
c1coc(CNc2ncnc3sc4c(c23)CCCCC4)c1	-16%	-26%
CC(C)(C)NC(=O)NC(=O)COC(=O)c1ccc2c(c1)S(=O)(=O)N=C1CCCCCN12	-3%	-4%
COc1ccc(NC(=O)CSc2nc(C)cs2)cc1	-18%	-1%
COc1cc(CN(C)C(=O)C(=O)c2c[nH]c3ccccc23)ccc1O	-14%	-27%
CCOc1ccc(N/C=C/C(=O)c2ccccc2)cc1	-13%	-1%

Rewritten in CSV form: part of the list above.
Structure,Vaccinia Venus,VACV mCherry inh
O=C(CN1C(=O)NC(Cc2c[nH]c3ccccc23)C1=O)Nc1ccccc1C(F)(F)F (centres undefined),-18%,-4%
CCOC(=O)c1cnc2c(Cl)cccc2c1NCCN1CCOCC1,15%&1%,1%&-1%
COc1ccc(C2N(c3cc(Cl)ccc3OC)C(=O)C3CCCN32)cc1 (centres undefined),-12%,-1%
Nc1ccc(CCc2ccccn2)cc1,-10%,?
CCOc1cc(N2CCOCC2)c(OCC)cc1NC(=O)[C@H](C)N1C(=O)C2CC=CCC2C1=O (some centres undefined),6%,-2%
O=C1C2C(c3ccccc3)CC=CC2[C@H](c2ccoc2)N1Cc1ccccc1 (some centres undefined),-26%,-12%
COCc1cc(=O)n2[nH]cc(-c3ccsc3)c2n1,-5%,-7%
Cc1ccc(NC(=O)CSc2ccccc2)cc1S(=O)(=O)N1CCCCC1,-14%,-3%
CC1(C)CC(=O)C2=C(C1)OC(N)=C([N+](=O)[O-])C2c1cccs1 (centres undefined),7%,-1%
CCc1nc(NCCCCCO)c2nnn(Cc3ccccc3F)c2n1,-13%,·
COc1ccc(-c2nc3sc(CCNS(=O)(=O)c4c(C)cc(C)cc4C)c(C)n3n2)cc1,?,?
O=C1CSC2(C(=O)N(Cc3cccc(C(F)(F)F)c3)c3ccccc32)N1c1ccc(F)c(F)c1 (centres undefined),-11%,-18%
c1coc(CNc2ncnc3sc4c(c23)CCCCC4)c1,-16%,-26%
CC(C)(C)NC(=O)NC(=O)COC(=O)c1ccc2c(c1)S(=O)(=O)N=C1CCCCCN12,-3%,-4%
COc1ccc(NC(=O)CSc2nc(C)cs2)cc1,-18%,-1%
COc1cc(CN(C)C(=O)C(=O)c2c[nH]c3ccccc23)ccc1O,-14%,-27%
CCOc1ccc(N/C=C/C(=O)c2ccccc2)cc1,-13%,-1%

(cont.)
SMILES	Vaccinia Venus	VACV mCherry inh
COc1ccccc1C(=O)N=C1SC2CS(=O)(=O)CC2N1c1ccccc1 (centres undefined)	7%	13%
CC(CCc1ccco1)NC(=O)Cn1nc(Cc2ccncc2)c2ccccc2c1=O (centres undefined)	-17%	i
CCOC(=O)C1=CCC(c2ccc(C)cc2)N(S(=O)(=O)c2ccc(C)cc2)C1 (centres undefined)	-6%	-2%
CC1CC1C(=O)OCC(=O)Nc1cc(S(=O)(=O)N2CCCCC2)ccc1Cl (centres undefined)	-10%	-14%
COc1ccc(C)cc1NC(=O)COC(=O)c1c(-c2ccccc2)noc1C	?	-21%
COc1ccc(OCCCCc2c(C)n[nH]c2C)cc1	15%	-11%
CC(C)CCCC(C)C1CCC2C3CC=C4CC(=O)CC[C@@]4(C)C3CC[C@@]12C (some centres undefined)	0%	i
Cc1c(OCC(=O)N2CCN(c3ccccc3)CC2)ccc2c3c(c(=O)oc12)CCCC3	-9%	-5%
Cc1ccccc1NC(=S)NC(NC(=O)CF)C(Cl)(Cl)Cl (centres undefined)	0%	i
CC(C)Sc1ncc(Cl)c(C(=O)N(Cc2ccc(F)cc2)C2CCS(=O)(=O)C2)n1 (centres undefined)	-3%	-3%
Cc1nnc(NC(=O)C2CC(=O)N(Cc3ccccc3)C2)s1 (centres undefined)	3%	-1%
CC(C)N(c1ccccc1)c1ccc(NC(=O)COC(=O)CCN2C(=O)c3cccc([N+](=O)[O-])c3C2=O)cc1	-24%	-2%
Cc1cc(C)n(Cc2ccc(C(=O)Nc3ccc(Br)cc3C)o2)n1	-11%	-6%
COc1ccc(NC(c2ccccc2F)P(=O)(Oc2ccccc2)Oc2ccccc2)cc1 (centres undefined)	?	-21%
CCN1C(=O)C(=CC=CN(C)c2ccccc2)SC1=S	25%	i
Cc1ccc(OCCSc2nc(-c3cccs3)nc3cc(=O)[nH]n23)cc1Cl	-3%	2%
Cc1ccccc1C(=O)n1nc(-c2cccnc2)nc1NCc1ccccc1	-2%	-17%
Cc1ccc(CCN2CC(C(=O)NC3CCCC3)CC2=O)cc1 (centres undefined)	1%	-7%
O=C(O)c1ccccc1OCCN1CCCC1=O	-10%	-10%
Cc1ccc(-c2nc(CCNC(=O)c3ccc(C)c(C)c3)cs2)cc1	-11%	-2%
CC1=C(C#N)C(c2ccc(O)cc2)C(C#N)=C(C)N1	-9%[7.34 µM]	-1%[7.34 µM]
CCOC(=O)CC1=NN(c2ccccc2)C(=O)C1	-9%	-4%
c1ccc(C2CN3CCC2CC3)cc1 (centres undefined)	1%[7.34 µM]	-2%[7.34 µM]
COc1ccccc1C1=NOC(C)(c2nnc(Cc3ccccc3)o2)C1 (centres undefined)	-12%	i
O=c1cc(O)sc2ccccc12	-19%	·
N#CCSc1nc2ccccc2c(=O)n1CCCC(=O)NCC1CCCO1 (centres undefined)	-6%	i
COc1ccccc1C(=O)N/C(=C/c1ccc2c(c1)OCO2)C(=O)Nc1cccc(C(=O)O)c1	-9%	i
CCC(=O)Nc1ccc2nc(SCCOc3ccc(C)cc3OC)sc2c1	-15%	-4%

Compound profiles, as listed above. Order of screens: Vaccinia Venus, VACV mCherry inh
Nc1ccc(Nc2nc(-c3ccncc3)cs2)cc1 is entered as -12%, -21%
CCC(C)c1ccccc1NC(=O)COC(=O)C1=NN(c2ccccc2)C(=O)CC1 (centres undefined) is entered as -21%, -5%

Bioassay records deposited in PubChem by National Center for Advancing Translational Sciences (NCATS).
